# Assay outcomes as filed in PubChem.
# VDR inhibitor – vitamin D3 receptor (human) inhibition | P11473 | VDR-SRC2-3 peptide fluorescence polarization, 2 h | Potency, µM, without a hit: max response, negative = inhibition, most hits filed as inhibitors | 400,000 tested, 0.93% active; active means well fitted inhibition curve with a large enough effect; inconclusive means small, poorly fitted or top-dose-only effect, or another doubt; inactive means no such curve, though single readings can be large or run the other way; further: series mostly up to about 120 µM
# Target sequence (P11473 whole entry, looked up): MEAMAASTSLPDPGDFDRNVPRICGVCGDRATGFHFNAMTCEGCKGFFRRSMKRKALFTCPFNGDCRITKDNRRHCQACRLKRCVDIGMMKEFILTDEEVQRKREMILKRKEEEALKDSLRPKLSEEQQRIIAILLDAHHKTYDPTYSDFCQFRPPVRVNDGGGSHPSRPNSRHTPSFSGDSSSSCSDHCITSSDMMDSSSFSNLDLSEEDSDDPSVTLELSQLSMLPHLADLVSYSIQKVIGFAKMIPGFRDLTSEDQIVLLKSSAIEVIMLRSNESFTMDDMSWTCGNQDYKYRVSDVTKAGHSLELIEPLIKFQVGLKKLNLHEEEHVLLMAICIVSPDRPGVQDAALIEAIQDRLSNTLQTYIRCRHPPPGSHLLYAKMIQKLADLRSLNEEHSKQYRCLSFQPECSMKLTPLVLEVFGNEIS
#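 VDR–SRC2-3 interaction, FP format. Cmpds 23 nl via pintool, brief spin, 2 h ambient incubation.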
# The depositor's hits bear a star; ? = inconclusive; & = joins results of further samples. On the % scale 0 is the no-effect control and ±100 the full control effect; potency means the concentration at half of the fitted maximal effect. This is a subset; rates above refer to the full screens.
SMILES,VDR inhibitor
Cc1ccc(-n2c(SCc3ccccc3C)nc3[nH]ncc3c2=O)cc1C,5.5%
O=C(Nc1ccc(N2CCN(C(=O)c3ccco3)CC2)c(Cl)c1)c1cccs1,16.9%
CCOc1ccc(NC(=O)CCSc2nc3c(c(CC)c2C#N)C(=O)CC(C)(C)C3)cc1,-9.6%
O=C(Cc1ccccc1)Nc1ccc(C(=O)NCc2ccccc2)cc1,?
CCOc1ccc(CNC(=O)C2CCCN(c3nc4c(C)cc(C)cc4s3)C2)cc1 (stereo not given),?
Cc1nc2cnc(N3CCN(C)CC3)nc2n(C[C@H]2CCCO2)c1=O,2.6%
COc1ccc(CNC(=O)CCC2N=C3c4ccccc4N=C(SCC(=O)NCC4CCCO4)N3C2=O)cc1 (stereo not given),-11.6%
CCN(CC)S(=O)(=O)c1nnc(NC(=O)c2ccccc2Cl)s1,11.9%
CC(=O)Nc1c(Nc2ccccc2)c2ccccc2oc1=O,-16.0%
CS(=O)(=O)N1CCC(Oc2ccccc2C(=O)N2CCN(CC3CC3)CC2)CC1,5.3%
COc1ccc(C2C(C(=O)Nc3ccc(OC)c(OC)c3)c3ccccc3C(=O)N2C)cc1 (stereo not given),-1.7%
COc1ccc(Oc2ccc(C(F)(F)F)cc2NC(=O)CC(CC(=O)O)c2ccccc2)cc1 (stereo not given),1.5%
Cc1ccc(Nc2c(-c3ccc(N4CCOCC4)cc3)nc3ccc(C)cn23)cc1,-13.4%
CCC(O)(CC)C(=O)N(Nc1ccc(C)cc1)c1ccc(C)cc1,7.8%
Cc1ccc(Nc2ccc(S(=O)(=O)N3CCOCC3)cc2[N+](=O)[O-])cc1C,6.4%
Cc1ccc(Nc2nc(N)nc(CN3CCN(Cc4ccc5c(c4)OCO5)CC3)n2)c(C)c1,6.6%
CCC1CCCCN1C(=S)Nc1ccc(C(C)=O)cc1 (stereo not given),4.0%
Cc1cc(NC(=O)CCN2CC(C)OC(C)C2)ccc1Br (stereo not given),2.8%
Cc1ccc(C2(C)NC(=O)N(CC(=O)N(c3ccccc3)C3CCS(=O)(=O)C3)C2=O)cc1 (stereo not given),7.0%
CCN(CC)S(=O)(=O)c1ccc(Cl)c(NC(=O)COc2ccc(OC)cc2[N+](=O)[O-])c1,-7.7%
CCOc1ccc(S(=O)(=O)N2CCN(c3ccccc3F)CC2)c2cccnc12,-12.2%
CCN(CC)c1nc(C)c2c(c1C#N)CC(C)(C)OC2,14.6%
COc1cccc(C(=O)NCc2cn3ccccc3n2)c1,4.6%
Cc1ccc(S(=O)(=O)N2CCCCC2)cc1NC(=O)c1ccccn1,-9.6%
Cc1ccc(-c2cn3c(n2)sc2cc(C(=O)NC4CCCCCC4)ccc23)cc1,-1.4%
Cc1cccc(OCCCCCN2CCOCC2)c1C,-14.5%
O=C(c1cccc(NS(=O)(=O)c2cccc(F)c2)c1)N1CCN(c2ccccc2)CC1,-23.5%
CCOCCCNC(=O)C(c1ccccc1)N(Cc1cccs1)C(=O)CNC(=O)c1ccccc1 (stereo not given),3.6%
COc1ccc2c(c1)C(c1ccccc1)=NNC(c1ccco1)=N2,5.2%
O=C(CSc1nnc2sc3ccccc3n12)N1CCN(c2ccccc2)CC1,5.2%
Cc1ccc(CN(C)CCc2ccccn2)cc1,-9.9%
COc1ccccc1OCc1ccc(C(=O)N/N=C/c2ccco2)cc1,-0.5%
O=C(NC(Cc1c[nH]c2ccccc12)C(=O)O)c1cccs1 (stereo not given),-7.2%
O=C(O)CSC(NC(=O)c1cccnc1)(C(F)(F)F)C(F)(F)F,8.1%
COc1ccc(NC(=O)CSc2nnc(Cc3cccs3)n2C)cc1,19.9%
C/C=C\C(=O)Nc1cccc(C2=NOC3(C2)C[C@@H](C(N)=O)N(C(=O)CCCCC)C3)c1 (stereo not given in full),-0.4%
Cc1[nH]c2ccc(C(=O)NCCCN3CCN(C)CC3)cc2c1C,-0.1%
CCC(=O)N1CCc2cc(Br)cc(S(=O)(=O)CCC(=O)NCc3ccc(C)cc3)c21,-5.0%
CCC(C)NC(=O)CCc1c(C)nc2cc(-c3ccc(OC)cc3OC)nn2c1C (stereo not given),1.4%
COc1ccc(C(=O)NC(=S)Nc2cccc3cc(O)ccc23)cc1OC,-5.4%
O=C(Cc1c(C(=O)O)[nH]c2ccccc12)NCCN1CCN(c2ccccc2F)CC1,-7.0%
COC(=O)[C@H](C)[C@H](CC(C)C)NC(=O)[C@H](C)[C@H](CC(C)C)NC(=O)c1ccccn1,-3.5%
COc1cccc(CNC(C)C(=O)Nc2ccc(S(=O)(=O)N3CCCC3)cc2)c1 (stereo not given),0.4%
Cc1ccc(OCC(=O)NC(=S)Nc2cccc(NC(=O)c3ccc(Cl)cc3Cl)c2)cc1,3.1%
Nc1nnc(CC(=O)N/N=C/c2ccccc2OCc2ccc(F)cc2)s1,14.3%
COc1ccc(-c2cccc(C(=O)N3CCOCC3)c2)cc1,4.1%
CCc1c(C)c2ccc(O)c(CN3CCN(c4ccccc4)CC3)c2oc1=O,12.8%
Cc1nn(Cc2ccccc2)c2ncccc12,16.8%
O=C(NCC1CCCO1)C1CC(=O)N(c2ccc(Cl)cc2)C1 (stereo not given),-4.4%
CCc1cccc(NC(=O)CC2Oc3ccc(C)cc3NC2=O)c1 (stereo not given),-23.5%
Cc1cc(C)c(S(=O)(=O)N2CCN(C(=O)CCn3nc(C)c(C)c3C)CC2)c(C)c1,-12.8%
Cc1cc(C)n(C(=O)CNc2cccc(Cl)c2C)n1,-7.8%
C=CCCCCCCCCCCCc1ccco1,25.1µM*
NNC(=O)CCS(=O)(=O)c1ccc2ccccc2c1,7.4%
COc1ccc(-c2nc(C#N)c(N3CCN(c4ccccc4)CC3)o2)cc1,5.0%
O=C1CCCC/C1=C/Nc1cccc(C(F)(F)F)c1,3.0%
N#Cc1c2c(c(NCc3cccnc3)n3c1nc1ccccc13)CCC2,-3.8%
COc1ccccc1NC(=O)Nc1nn(C)c2cccc(N(C)C)c12,-1.0%
COc1ccc(OC)c(/C=N/NC(=O)CCN2CCN(C(c3ccccc3)c3ccccc3)CC2)c1,-6.8%
O=C(c1cc(-c2ccc(O)cc2)on1)N1CCN(c2ccccc2)CC1,0.4%

# Other entries
SMILES,VDR inhibitor
CCCN(CC(=O)Nc1ccc(F)c(F)c1F)C(=O)C1=COCCO1,2.0%
Cc1cc(NC(=O)C2CC(=O)OC2c2ccccc2)no1 (stereo not given),8.2%
CC(=O)CC(c1ccc([N+](=O)[O-])cc1)c1c(O)c2ccccc2oc1=O (stereo not given),-0.8%
CCN(CC(=O)NCc1ccc(F)cc1)C(=O)/C=C/c1cc(OC)ccc1OC,4.8%
Cc1c(C)c2ccc(OCC(=O)N(C)C)c(C)c2oc1=O,-8.3%
O=c1cc(C(F)(F)F)nc(-n2[nH]c3c(c2=O)CCCC3)[nH]1,-13.7%
CCOC(=O)Cn1nc(C)cc1NC(=O)c1ccncc1,5.7%
CCCn1c(SCC(=O)NC2CCCC2)nnc1-c1ccccn1,-12.4%
COCCCn1c(SCc2ccccc2)nc2cc(OC)c(OC)cc2c1=N,14.7%
c1csc(-c2nc3c4ccccc4c4ccccc4c3[nH]2)c1,-19.0%
COc1ccc(Cl)cc1NC(=O)NCC1CCN(Cc2ccccc2F)CC1,-6.0%&-11.3%
CCOC(=O)c1[nH]c(C)c(CC(C)C)c1C,13.2%
CCOC(=O)C1CCN(c2c(NC3CCCCCCC3)c(=O)c2=O)CC1,1.1%
COc1ccc(OCc2nnc3n2N=C(c2ccc(OC)cc2)CS3)cc1,-6.2%
CN(C)C(=O)c1ccc(NC(=O)Cn2nnnc2-c2ccccc2F)cc1,4.1%
CSc1cccc(NC(=O)CN(C)S(=O)(=O)c2ccc3c(c2)n(C)c(=O)c(=O)n3C)c1,4.4%
O=S(=O)(Nc1ccccc1Cl)c1cc(NC(=S)NCCN2CCOCC2)ccc1Cl,-17.2%
Cc1ccc(F)cc1NC(=O)c1cnccn1,-3.7%
COc1ccc(-c2csc(NC(=O)c3ccccc3C(=O)O)n2)cc1,-7.4%
COc1cc2ccccc2cc1C(=O)N(CCN(C)C)c1nc2c(OC)ccc(OC)c2s1,-21.6%

# Looked up one by one from the list above (3):
SMILES,VDR inhibitor
CSc1cccc(NC(=O)CN(C)S(=O)(=O)c2ccc3c(c2)n(C)c(=O)c(=O)n3C)c1,4.4%
COCCCn1c(SCc2ccccc2)nc2cc(OC)c(OC)cc2c1=N,14.7%
O=S(=O)(Nc1ccccc1Cl)c1cc(NC(=S)NCCN2CCOCC2)ccc1Cl,-17.2%

# Sorted by molecular weight (rising): 5 of the compounds above
SMILES,VDR inhibitor
Cc1ccc(F)cc1NC(=O)c1cnccn1,-3.7%
Cc1c(C)c2ccc(OCC(=O)N(C)C)c(C)c2oc1=O,-8.3%
COc1ccc(-c2csc(NC(=O)c3ccccc3C(=O)O)n2)cc1,-7.4%
CCCN(CC(=O)Nc1ccc(F)c(F)c1F)C(=O)C1=COCCO1,2.0%
CN(C)C(=O)c1ccc(NC(=O)Cn2nnnc2-c2ccccc2F)cc1,4.1%

# Returning to the listing; the 4 compounds before the break are reprinted first.
SMILES,VDR inhibitor
O=S(=O)(Nc1ccccc1Cl)c1cc(NC(=S)NCCN2CCOCC2)ccc1Cl,-17.2%
Cc1ccc(F)cc1NC(=O)c1cnccn1,-3.7%
COc1ccc(-c2csc(NC(=O)c3ccccc3C(=O)O)n2)cc1,-7.4%
COc1cc2ccccc2cc1C(=O)N(CCN(C)C)c1nc2c(OC)ccc(OC)c2s1,-21.6%
CC1(C)Cc2nc3oc4c(=O)n(CC(=O)Nc5cccc(Cl)c5)cnc4c3cc2CO1,26.0%
COc1ccc(NC(=O)c2cc(-c3ccccc3Cl)no2)cc1,-7.2%
C=CCn1c(-c2cccc(OC)c2OC)n[nH]c1=S,-6.5%
O=C(NCC(c1ccccc1)c1ccccc1)c1nn(-c2ccccc2Cl)nc1CO,14.8%
Cn1c(=O)oc2cc(S(=O)(=O)NCCC(=O)NC3CCCC3)ccc21,-10.8%
C=CCn1c(=NC(=O)C2COc3ccccc3O2)sc2cc(S(N)(=O)=O)ccc21 (stereo not given),-1.9%
CCNC(=S)N1CCN(CCNC2=CC(=O)CC(C)(C)C2)CC1,-10.6%
CNc1nc(-c2ccc([N+](=O)[O-])cc2)cs1,9.4%
COc1ccc(-c2noc(-c3cccnc3NCc3ccco3)n2)cc1,16.9%
Nc1ncn([C@H]2C[C@H](O)[C@@H](CO)O2)c(=O)n1,-2.1%
Cc1cccc(N2C(=O)N(Cc3cc(=O)n4ccccc4n3)c3ccccc3S2(=O)=O)c1,25.9%
CCOC(=O)N1CCN(C(=O)c2ccc(NS(C)(=O)=O)cc2)CC1,12.1%
C[C@H](CO)N1C[C@H](C)[C@@H](CN(C)Cc2ccc(-c3ccccc3)cc2)Oc2c(NC(=O)Cc3ccccc3)cccc2C1=O,4.9%
COc1cccc(CN2CCC(n3nccc3NC(=O)CCCc3ccccc3)CC2)c1,-18.2%
Cc1ccc2sc(N(CCCN(C)C)C(=O)c3ccc(S(=O)(=O)N(C)C4CCCCC4)cc3)nc2c1C,-6.5%
C=CC[C@H](CC(=O)N(CCO)Cc1ccccc1)C(=O)N[C@@H](C)COC(=O)[C@H](CC=C)CC(=O)OC(C)(C)C,-9.1%
COCC(=O)Oc1c(Sc2ccccc2[N+](=O)[O-])c(C)nn1C(C)(C)C,-22.1%
COc1ccc(NC(=O)C2C3C=CC4(O3)C2C(=O)N(CCN2CCCCC2C)C4C(=O)NC2CCCCC2)cc1 (stereo not given),-11.0%
COc1cc(/C=C2\C(=O)N(CCC#N)N=C2C)c(Br)cc1OC(C)C,?
C[C@H](N)c1nnc(SCc2c(Cl)cccc2Cl)o1,-0.9%
COc1cccc(CNC(=O)CCC2CCCN(C(=O)c3cscn3)C2)c1 (stereo not given),6.5%
O=C(Oc1ccccc1)N1CCC2(CCCN(c3ccc(-c4ccccc4)cc3)C2)CC1,-9.0%
COc1ccnc(Oc2ccc(F)cc2)c1C(=O)N/C=N/OCc1ccc(F)cc1,3.1%
COc1ccc(N2CCN(C(=O)CN(CCc3ccccc3)S(C)(=O)=O)CC2)cc1,0.5%
Oc1ccc(Nc2nnc(-c3ccc(O)cc3)c3ccccc23)cc1,-14.5%
CN1CCN(S(=O)(=O)c2ccc(N3CCN(c4ccc(O)cc4)CC3)c([N+](=O)[O-])c2)CC1,-7.5%
C[C@H](NC(=O)c1ccccc1)C(=O)N1CCN(c2ccccc2)CC1,9.0%
CC(C)c1ccc(NC(=O)CSC2=Nc3ccccc3C3=NC(CC(=O)NCc4ccc(F)cc4)C(=O)N23)cc1 (stereo not given),6.3%
O=C(O)c1nn(CCOc2ccc(Cl)cc2Cl)c(=O)c2ccccc12,-3.8%
CCOC(=O)c1nn(-c2cc(C(=O)OC)cc(C(=O)OC)c2)cc1O,-1.0%
O=C(c1ccco1)N(Cc1cccc(Cl)c1)C1CCS(=O)(=O)C1 (stereo not given),-4.1%
COc1ccc(NC(=O)c2sc3nc(-c4cc5cccc(OC)c5oc4=O)[nH]c(=O)c3c2C)cc1,-11.7%
COc1ccccc1-n1c(-c2ccc(Cl)cc2)c[nH]c1=S,-24.5%
NC(=O)C1CCCN(CC(=O)Nc2cc(S(=O)(=O)N3CCOCC3)ccc2N2CCCC2)C1 (stereo not given),6.6%
Cc1ccc(NC(=O)Cn2cccc2)c(Br)c1,2.2%
Cc1cccc(C)c1NC(=O)COC(=O)[C@@H]1CCCN1C(=O)c1cccs1,0.1%
O=C(O)CCCn1cc(NC(=O)c2ccco2)cn1,-0.7%
O=C(CSc1nnc(-c2ccccc2Br)o1)N1CCc2ccccc2C1,4.7%
COc1cccc2c1C(=O)c1c(O)c3c(c(O)c1C2=O)CC(O)(C(C)=O)CC3OC1CC(O)C(O)C(C)O1 (stereo not given),-12.2%
CC(=O)c1cccc(NC(=O)c2cc(=O)[nH]c3ccccc23)c1,3.7%
